Six1-Eya2 inh – Six1/Eya2 interaction inhibition. activity change, % (test concentration not listed). AlphaScreen GST-Six1/His-Eya2 binding, biochemical; hits give low values; control for the full effect not named in the record. Q15475+O00167. AID 651725. actives 0.56% (n = 360,000); in the data active = activity change below about -65%; inconclusive = about -30% to -65%; inactive = above about -30%; note: % is set by controls: 0 for no effect and ±100 for the full control effect; compound concentration not given in the record
Target sequence (O00167 whole entry, looked up): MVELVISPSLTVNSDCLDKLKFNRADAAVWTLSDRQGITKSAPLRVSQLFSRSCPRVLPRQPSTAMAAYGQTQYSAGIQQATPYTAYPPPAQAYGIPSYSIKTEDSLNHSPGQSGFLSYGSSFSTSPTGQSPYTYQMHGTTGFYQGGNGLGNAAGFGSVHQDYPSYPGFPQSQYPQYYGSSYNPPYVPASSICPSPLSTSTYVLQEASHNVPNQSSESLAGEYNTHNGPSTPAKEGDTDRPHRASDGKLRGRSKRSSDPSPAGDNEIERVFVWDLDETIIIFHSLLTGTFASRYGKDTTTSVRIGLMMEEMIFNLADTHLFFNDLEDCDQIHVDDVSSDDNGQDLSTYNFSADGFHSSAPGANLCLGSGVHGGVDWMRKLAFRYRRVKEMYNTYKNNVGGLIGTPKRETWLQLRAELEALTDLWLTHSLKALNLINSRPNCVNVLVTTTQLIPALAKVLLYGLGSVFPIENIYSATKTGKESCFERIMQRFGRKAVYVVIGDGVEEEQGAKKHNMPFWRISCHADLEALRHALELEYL
Target sequence (Q15475 whole entry, looked up): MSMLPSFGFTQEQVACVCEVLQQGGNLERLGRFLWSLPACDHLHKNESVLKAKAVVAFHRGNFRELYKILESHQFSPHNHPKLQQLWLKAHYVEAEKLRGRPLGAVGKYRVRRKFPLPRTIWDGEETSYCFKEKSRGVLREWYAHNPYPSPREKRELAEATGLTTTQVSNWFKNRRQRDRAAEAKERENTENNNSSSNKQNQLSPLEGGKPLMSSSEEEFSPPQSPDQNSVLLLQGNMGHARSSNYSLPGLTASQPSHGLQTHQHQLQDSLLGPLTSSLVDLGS
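AlphaScreen luminescence read after one hour at 37 °C in darkness. Pin-transferred compounds met GST-Six1 and His-Eya2 protein (5X stock 250 nM/500 nM) plus glutathione donor and Ni-chelate acceptor beads (5X, 50 ug/mL).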
CtBP-E1A blk – inhibitors of CtBP/E1A interaction | AlphaScreen GST-E1A/His-CtBP binding, 1536-well; hits give low values; control for the full effect not named in the record | activity change, % (concentration not given with the values) | actives 0.49% (n = 340,000) | AID 651724; in the data active means activity change below about -65%; inconclusive means about -30% to -65%; inactive means above about -30%; note: % is set by controls: 0 for no effect and ±100 for the full control effect
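Protein mix (5X: 125 nM each GST-E1A, His-CtBP) was incubated with pinned compound 2 h at 37 deg C in dark, in 50 mM Tris pH 8.0 buffer with 300 mM NaCl. Glutathione donor and nickel acceptor beads followed; AlphaScreen signal read after 1 h.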
PINK1 modulator – PINK1 expression modulation; AID 624263; actives 0.2% (n = 410,000); PINK1 immunofluorescence, high-content cytometry, 24 h; Potency, µM (titrated, usually from 76.6 µM), inactives show at the highest dose activation (PINK1 increase), most hits filed as activators; active = well fitted activation curve with a large enough effect; inconclusive = small, poorly fitted or top-dose-only effect; inactive = flat fitted curve, though single readings scatter; cell line not stated here;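 note: potency is the fitted concentration of half-maximal effect; % of control where 0% means no effect; nearly all actives have a fitted effect of over 65% in size; a mitochondrial uncoupler was the plate control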
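PINK1 protein, normally rapidly degraded, was detected by immunofluorescence after 24 hour compound treatment of a stable cell line. Titration data (5 concentrations) came from laser-scanning cytometry, with CCCP-treated wells as controls.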
TRPML1 agonist – activates the human TRPML1 channel. Q9GZU1. TRPML1-expressing cells, Ca2+ dye fluorescence, FDSS; host cell line not named in the record; reference of the full effect not given here. activation, % (test concentration not listed). actives 0.12% (n = 410,000). AID 624414; in the data active = activation above about 50%; inconclusive = about 30% to 50%; inactive = below about 30%; note: 0% is about no effect; the text of the record puts the active cut at 80%
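Calcium fluorescence on an FDSS kinetic reader gave the read-out. Tet-induced TRPML1-DL cells were plated overnight, dye-loaded (Ca8 with quencher, 45-90 min, room temperature, dark), then read 110 s after compound addition, and again 110 s after 4uM final 54-4 (EC80).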
D2 potentiator – potentiates the human D2 dopamine receptor allosterically | DiscoveRx D2 beta-arrestin cells, luminescence, 90 min; 100% = 57 uM dopamine signal | potentiation, % (concentration not given with the values) | actives 0.23% (n = 360,000); active = potentiation of 50% or more; inconclusive = 30% to 50%; inactive = 30% or less;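 note: compound concentration not given in the record; tested on top of an EC20 dose of dopamine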
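PathHunter D2 cells, attached overnight at 37 deg C, received compound in DMSO plus dopamine at EC20 (50 nM final) for 90 min at 37 deg C. Beta-arrestin recruitment was read as luminescence after 1 h with detection reagent at ambient temperature.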
D2 ag – activates the human D2 dopamine receptor; DiscoveRx PathHunter D2 beta-arrestin, luminescence, 90 min; 100% = 57 uM dopamine signal; P14416; actives 0.084% (n = 360,000); AID 624465; activation, % (test concentration not listed); in the data active = activation above about 40%; inconclusive = about 15% to 40%; inactive = below about 15%; note: compound concentration not given in the record; the text of the record calls up to 30% inactive
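DiscoveRx PathHunter D2 beta-arrestin cells (2,100/well) attached overnight, then compound-stimulated 90 min at 37 C in HBSS/10 mM HEPES/0.1% Tween-20 buffer; beta-galactosidase complementation read by luminescence after 1 h at ambient temperature. Dopamine 57 uM final (EC100) as control.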
Starred values were filed as active, the others as inactive; ? = inconclusive; . = no result given; & = joins results of further samples.

SMILES | Six1-Eya2 inh | CtBP-E1A blk | PINK1 modulator | TRPML1 agonist | D2 potentiator | D2 ag
N=C1C(c2nc3ccccc3s2)=C(O)CN1NC(=O)c1ccc([N+](=O)[O-])cc1 | -14 | -11 | -3.6% | -0.6 | -2 | 3.2
O=C(Nc1ncn[nH]1)c1cccc(F)c1 | -11 | -8 | 0.0% | -0.5 | -9 | -2.5
CCOC(=O)C1=CC[C@]2(C)c3c(c4ccccc4n3C)C(=O)C1N2C | 5 | 10 | 1.7% | -0.5 | -2 | -3.0
O=C(Nc1cccc(F)c1)C1CCCN(C(=O)c2ccc(Cl)cc2)C1 (configuration not stated) | -1 | 6 | -1.4% | 0.3 | -2 | -5.0
COC(=O)c1c(C)oc2cc(Br)c(OCC(=O)C(C)(C)C)cc12 | 7 | 8 | 6.1% | -0.3 | 14 | -2.9
Cc1csc(NC(=O)CSc2nc(=O)n(CCN(C)C)c3c2CCCC3)n1 | -1 | -4 | -1.4% | -0.8 | -3 | -1.2
Cc1ccc(N2CN(Cc3ccco3)CNC2=S)c(C)c1 | 5 | 8 | 0.9% | -0.6 | 3 | -2.9
CS(=O)(=O)c1sc2nc(-c3cccs3)cc(-c3ccccc3)c2c1N | 26 | 35 | -2.1% | 0.5 | 12 | -3.0
COc1cccc(-n2c(Cn3nc(C(F)(F)F)cc3C)n[nH]c2=S)c1 | 3 | 5 | 6.9% | -0.1 | -7 | -2.3
CCCc1nnc(NC(=O)CCC(=O)Nc2ccc(Cl)cc2)s1 | 1 | -5 | 7.7% | -1.3 | -22 | -8.2
O=C(NCCCCc1ccccc1)c1cccc(NC(=O)c2ccccc2)c1 | -3 | 1 | 2.1% | 1.7 | . | 0.5
O=C(NCc1ccccn1)c1ccc(NS(=O)(=O)c2ccccc2)cc1 | 1 | 4 | 0.8% | -0.4 | -7 | -4.0
COc1ccc(OC)c(NC(=O)C2CC(C)=C(C)CC2C(=O)O)c1 (configuration not stated) | 1 | 0 | -6.4% | -0.2 | -13 | -2.5
CCOC(=O)C1CCCN(S(=O)(=O)c2ccc3c(c2)N(C)C(=O)CC(=O)N3C)C1 (configuration not stated) | 1 | 1 | 0.8%&1.0% | -0.7&-1.0 | -9 | -3.9
CCOc1cc(/C=C2\NC(=S)N(C)C2=O)ccc1OCc1ccc(C(=O)O)cc1 | -2 | . | 0.2% | 0.3 | -6 | -5.5
COc1cccc2nc3cc(C)c(C)cc3nc12 | -11 | . | 0.0% | 2.3 | -22 | -2.8
CC(C)Cn1c(N)c(C(=O)COC(=O)c2ccc(F)cc2)c(=O)n(C)c1=O | -1 | 9 | -0.5% | 1.1 | -7 | 5.6
CCN1CCC(=NNC(=O)c2ccco2)CC1 | -1 | -3 | -1.2% | -0.9 | -2 | -0.3
O=C(CSc1nnnn1-c1ccc(C(=O)O)cc1)NC1CC1 | 3 | 1 | 0.7% | 0.8 | -11 | -2.2
c1ccc(C[n+]2cccc3c4ccccc4ccc32)cc1 | 0 | -3 | -0.8% | 0.0 | -18 | -2.6
O=C(CN1C(=O)NC(c2ccccc2)(c2ccccc2)C1=O)NCc1ccco1 | -17 | -2 | 1.3% | 0.4 | 8 | -0.7
O=C(COC(=O)Cc1ccc(Cl)c(Cl)c1)Nc1ccc2[nH]c(=O)[nH]c2c1 | -12 | -1 | 6.8% | 8.0 | 18 | 1.1
COc1cccc(Cn2c(NCc3cccnc3)nc3c2c(=O)n(C)c(=O)n3C)c1 | 11 | 11 | -3.2% | 0.1 | 6 | 3.1
COc1ccc(OC)c(CNC(=O)C2CCN(S(=O)(=O)N3CCCC3)CC2)c1 | 1 | 13 | . | 0.1 | -1 | -1.4
CCOc1ccc2nc(N(CCCN(C)C)C(=O)c3ccc(S(=O)(=O)N4CCc5ccccc5C4)cc3)sc2c1 | 11 | 0 | 3.4% | 1.2 | -3 | -5.8
CCSc1nc(-c2ccccc2)c(-c2ccccc2)n1CC(O)CO (configuration not stated) | -4 | . | 1.5% | 0.4 | -7 | -3.9
Cc1ccc(S(=O)(=O)N(Cc2ccc(Cl)cc2)c2ccccc2C(=O)O)cc1 | 5 | 0 | -2.8% | 0.7 | 4 | -0.6
Nc1cccc2c1C(=O)N(Cc1cccc(Cl)c1)C2=O | 76 | 19 | 2.5% | 5.7 | 6 | 9.1
COc1ccc(-n2c(SCC(=O)Nc3nccs3)nnc2-c2ccccc2)cc1 | -1 | 0 | -2.3% | 2.5 | -19 | 0.8
CCc1cc(=O)oc2c3c(cc(OCC(=O)NCCC(=O)O)c12)OC(C)(C)CC3 | 3 | -5 | 3.4% | -0.1 | 2 | 2.6
CCS(=O)(=O)c1nc2ccccc2n1Cc1ccccn1 | 6 | 7 | 1.6% | -1.2 | 0 | 6.2
CN(c1nc(-c2ccccc2)cs1)C1CCS(=O)(=O)C1 (configuration not stated) | -9 | 9 | . | -0.2 | 0 | -2.2
CC12CCC(=O)N1C(C(=O)Nc1nc3ccc(F)cc3s1)CS2 (configuration not stated) | 7 | 4 | 1.4% | 0.5 | 0 | 4.9
O=C(Nc1ccccc1F)N1CCCC1c1cccnc1 (configuration not stated) | 1 | -14 | 0.5% | 0.1 | -2 | 1.8
O=C1Nc2ccccc2C(=O)N2C[C@@H](O)C[C@H]12 | 2 | 8 | 1.0% | -0.3 | 6 | 4.2
O=C(Nc1ccc2cccnc2c1)c1ccc(Br)cc1 | 5 | . | -0.4% | -0.3 | -18 | -3.6
COc1ccc(NC(=S)N2CCNC(=O)C2CC(=O)Nc2cccc(Cl)c2C)cc1 (configuration not stated) | 1 | . | -0.4% | 0.3 | -9 | -5.1
COc1ccc(C(CC(=O)c2ccccc2)S(=O)(=O)c2ccccc2)cc1 (configuration not stated) | 10 | 2 | 1.1% | 2.4 | -10 | -1.1
CC(=O)c1cccc(NC(=S)NC(=O)c2ccc(C)cc2Cl)c1 | -2 | . | 0.1% | 2.2 | -7 | -5.8
O=C(NCCC(=O)N(CCc1ccccc1)Cc1ccccc1)c1ccc(Br)cc1 | -7 | 7 | 25% | 3.9 | -29 | -4.3
CCC(=O)N1CCc2cc(S(=O)(=O)CCC(=O)Nc3ccc(C)c(F)c3)ccc21 | 8 | -3 | 1.1% | -0.9 | -5 | 0.0
CC(=O)NC(c1ccc(F)c(F)c1)c1nc(-c2ccc3c(c2)OCO3)cs1 (configuration not stated) | -9 | -2 | 3.2% | 0.5 | -8 | -2.2
CN(/N=C/c1ccc2c(c1)OCO2)c1ccccc1 | ? | -21 | -0.8% | 3.3 | 12 | 0.1
COc1ccc(Cc2nc(-c3cccnc3)no2)cc1OC | 26 | 0 | 1.9% | 0.9 | -4 | 4.2
CC1=C(C)C(=O)N(c2ccc(C(=O)O)cc2)C1=O | -7 | 11 | 0.6% | 0.1 | 15 | -1.8
CC(C)CCc1noc(CN2CCC(C(=O)N3CCOCC3)CC2)n1 | -1 | 4 | -0.7% | 0.7 | -9 | -2.3
O=C(NCCCc1ccccc1)C(=O)c1c[nH]c2ccccc12 | -4 | 1 | 2.9% | 3.6 | -2 | -0.2
CCOC(=O)C(C(=O)Nc1ccccn1)C1CCCCC1 (configuration not stated) | 3 | 9 | 1.1% | 0.3 | 1 | -3.1
C/C=C(\C)C(=O)OC(C)(C)[C@@H]1Cc2cc3ccc(=O)oc3cc2O1 | 12 | 3 | 3.1% | 1.6 | 5 | 3.7
COc1ccc(C(=O)NCC(=O)N/N=C(\C)c2ccco2)cc1OC | 1 | 4 | 1.5% | -0.3 | 2 | 0.8

A different layout for part of the listing above:
Each structure is followed by: Six1-Eya2 inh	CtBP-E1A blk	PINK1 modulator	TRPML1 agonist	D2 potentiator	D2 ag
- COc1ccc(C(CC(=O)c2ccccc2)S(=O)(=O)c2ccccc2)cc1 (configuration not stated)
→ 10	2	1.1%	2.4	-10	-1.1
- CC(=O)c1cccc(NC(=S)NC(=O)c2ccc(C)cc2Cl)c1
→ -2	.	0.1%	2.2	-7	-5.8
- O=C(NCCC(=O)N(CCc1ccccc1)Cc1ccccc1)c1ccc(Br)cc1
→ -7	7	25%	3.9	-29	-4.3
- CCC(=O)N1CCc2cc(S(=O)(=O)CCC(=O)Nc3ccc(C)c(F)c3)ccc21
→ 8	-3	1.1%	-0.9	-5	0.0
- CC(=O)NC(c1ccc(F)c(F)c1)c1nc(-c2ccc3c(c2)OCO3)cs1 (configuration not stated)
→ -9	-2	3.2%	0.5	-8	-2.2
- CN(/N=C/c1ccc2c(c1)OCO2)c1ccccc1
→ ?	-21	-0.8%	3.3	12	0.1
- COc1ccc(Cc2nc(-c3cccnc3)no2)cc1OC
→ 26	0	1.9%	0.9	-4	4.2
- CC1=C(C)C(=O)N(c2ccc(C(=O)O)cc2)C1=O
→ -7	11	0.6%	0.1	15	-1.8
- CC(C)CCc1noc(CN2CCC(C(=O)N3CCOCC3)CC2)n1
→ -1	4	-0.7%	0.7	-9	-2.3
- O=C(NCCCc1ccccc1)C(=O)c1c[nH]c2ccccc12
→ -4	1	2.9%	3.6	-2	-0.2
- CCOC(=O)C(C(=O)Nc1ccccn1)C1CCCCC1 (configuration not stated)
→ 3	9	1.1%	0.3	1	-3.1
- C/C=C(\C)C(=O)OC(C)(C)[C@@H]1Cc2cc3ccc(=O)oc3cc2O1
→ 12	3	3.1%	1.6	5	3.7
- COc1ccc(C(=O)NCC(=O)N/N=C(\C)c2ccco2)cc1OC
→ 1	4	1.5%	-0.3	2	0.8

Later entries.
SMILES | Six1-Eya2 inh | CtBP-E1A blk | PINK1 modulator | TRPML1 agonist | D2 potentiator | D2 ag
CCN1C[C@@H]2[C@@H]3C(=O)N(C)C(=O)[C@@H]3[C@](C)(C1=O)N2C(=O)c1ccc(Cl)c(Cl)c1 | 1 | 3 | -0.8% | 0.0 | -3 | -2.8
COc1ccc(C2CC(c3ccc(Cl)c(Cl)c3)Nc3nc(N)nn32)cc1 (configuration not stated) | 7 | -11 | 2.1% | 4.4 | -5 | -0.9
Cc1ccc(NC(=S)N2CCN(S(=O)(=O)c3ccc(F)cc3)CC2)cc1 | 7 | 1 | 1.5% | 0.8 | -1 | 0.9
CCCCNC(=S)NCc1ccc2[nH]c3c(c2c1)CCCC3 | -26 | ? | ? | -0.4 | -10 | -4.9
O=C(CSc1ccc2nnc(-c3ccc(F)cc3)n2n1)NCc1ccco1 | -6 | -1 | . | -0.4 | 9 | -0.2
O=C(COC(=O)c1nc(Cl)ccc1Cl)Nc1ccc2c(c1)OCO2 | 7 | 0 | 1.9% | 2.5 | -12 | -3.7

Screening results as filed in PubChem.
